gsp agonist – agonists of gsp mutant (McCune-Albright syndrome); gsp mutant cells, cAMP HTRF, 30 min; control for the full effect not named in the record; Potency, µM (titrated, usually from 76.9 µM), for inactives: at the highest dose activation (cAMP increase), usual class: activators; 340,000 compounds, 0.13% hits; AID 624287; active = well fitted activation curve with a large enough effect; inconclusive = small, poorly fitted or top-dose-only effect, or another doubt; inactive = no such curve, though single readings can be large or run the other way; cell line not stated here;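 note: phosphodiesterase inhibitor Ro 20-1724 added with compounds to block cAMP breakdown; potency is the fitted concentration of half-maximal effect; nearly all actives have a fitted effect of over 60% in size; about a fifth of the inactives were tested at one dose only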
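Cells in DMEM/10% FBS with G418 were pretreated with compounds in DMSO plus […] (300 uM stock) for 30 min at 37C. cAMP was measured by HTRF (cAMP-d2 plus anti-cAMP antibody-K) after 30 min at room temperature.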
ClpP mod – qHTS Assay for Activators of ClpP. AID 651965, 2013. 340,000 compounds, 1.9% hits. ATP-dependent Clp protease proteolytic subunit (Bacillus subtilis (strain 168)), P80244. Potency, µM (doses to about 57.5 µM), without a hit: at the top dose activity change, negative = active. purified B. subtilis ClpP, FRET peptide cleavage, 20 min; active = well fitted falling curve with a large enough effect; inconclusive = small, poorly fitted or top-dose-only effect; inactive = no such curve, though single readings can be large or run the other way; note: potency is the fitted concentration of half-maximal effect; the source files actives as falling curves though it sought activators and does not explain the sign; nearly all actives have a fitted effect of over 65% in size; many hits overshoot -100%
Target sequence (P80244 whole entry, looked up): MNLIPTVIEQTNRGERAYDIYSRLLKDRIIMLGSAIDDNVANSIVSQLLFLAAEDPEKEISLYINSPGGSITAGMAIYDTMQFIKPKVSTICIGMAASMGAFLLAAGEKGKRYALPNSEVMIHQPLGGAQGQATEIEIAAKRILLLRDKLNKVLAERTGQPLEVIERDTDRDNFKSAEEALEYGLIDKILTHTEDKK
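Purified B. subtilis ClpP, 10 microg/mL final in Tris/HCl pH8 with KCl, BSA, glycerol and Tween-20, cleaved an Abz/nitrotyrosine-quenched decapeptide. Fluorescence (ex 320, em 430) was read at 0 and 20 min at room temperature. Delta was normalized to 5.8 microM ADEP and DMSO/no-enzyme controls.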
gsp antagonist – gsp mutant antagonism; 340,000 compounds, 0.4% hits; gsp-mutant cells, cAMP HTRF, 30 min; control for the full effect not named in the record; Potency, µM (series often up to 76.9 µM), without a hit: top-dose activity change, negative = inhibition, usual class: inhibitors; AID 624288; active = falling curve of any shape with a large fitted effect; inconclusive = falling curve, mostly with a smaller effect; inactive = flat or rising curve; cell line not stated here;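 note: intracellular cAMP measured with PDE inhibitor Ro 20-1724 present during compound exposure; potency is the fitted concentration of half-maximal effect; % is set by controls: 0 for no effect and ±100 for the full control effect; nearly all actives have a fitted effect of over 65% in size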
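Measurement of cellular cAMP by homogeneous time-resolved fluorescence following a 30 min compound exposure at 37C. The PDE inhibitor […] was present throughout; the assay buffer was DPBS with 0.05% BSA and 0.005% Tween 20.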
Menin-MLL FL inh – displaces fluorescein MLL peptide from human menin; 290,000 tested, under 10 active; AID 1766; Fluorescence polarization, fluorescein-MLL peptide displacement from menin; FP activity change, % at 61.4 µM; inconclusive = falling polarisation curve, or a change in total fluorescence; inactive = total fluorescence flat and polarisation flat or rising; no compound was filed as active; the % refers to the polarisation; negative = inhibition;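 note: % of control where 0% means no effect; inhibitors lower the polarisation; unlabelled MLL peptide was the positive control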
PINK1 modulator – modulators of PINK1 expression | PINK1 immunofluorescence, high-content cytometry, 24 h | Potency, µM (highest dose often 76.6 µM), inactives show top-dose activation (PINK1 increase), usual class: activators | 410,000 compounds, 0.2% hits | AID 624263; active = well fitted activation curve with a large enough effect; inconclusive = small, poorly fitted or top-dose-only effect; inactive = flat fitted curve, though single readings scatter; cell line not stated here;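 note: potency is the fitted concentration of half-maximal effect; % of control where 0% means no effect; nearly all actives have a fitted effect of over 65% in size; a mitochondrial uncoupler was the plate control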
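PINK1 protein level read as immunofluorescence by microplate cytometer in a fixed, stained stable cell line after 24 h exposure to five compound concentrations, with CCCP as control.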
Sfp inh – Sfp phosphopantetheinyl transferase inhibition; Q9F4F7; Biochemical Sfp PPTase activity, qHTS; Potency, µM, for inactives: max response, negative = inhibition, hits mostly inhibitors; 310,000 compounds, 3.5% hits; active = well fitted inhibition curve with a large enough effect; inconclusive = small, poorly fitted or top-dose-only effect, or another doubt; inactive = no such curve, though single readings can be large or run the other way;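 note: the enzyme is Sfp with the accession as filed and its product quenches rhodamine fluorescence; potency is the fitted concentration of half-maximal effect; 0% = enzyme reaction without inhibitor and -100% = no enzyme wells; top concentration of the series not given in the record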
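Fluorescence-quenching assay with 15 nM Sfp, 5 uM rhodamine-CoA and 12.5 uM BHQ-2-labelled ybbR peptide in pH 7.6 Hepes/MgCl2 buffer. Enzyme was pre-incubated with compound for 15 min at room temperature. Rate was taken from the 30-min fluorescence change (525/598 nm).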
D2 agonist – activates the human D2 dopamine receptor | activation, % (concentration not given with the values) | 360,000 compounds, 0.084% hits | P14416 | DiscoveRx PathHunter D2 beta-arrestin, luminescence, 90 min; 100% = 57 uM dopamine signal; in the data active = activation above about 40%; inconclusive = about 15% to 40%; inactive = below about 15%; note: the text of the record calls up to 30% inactive
Target sequence (P14416 whole entry, looked up): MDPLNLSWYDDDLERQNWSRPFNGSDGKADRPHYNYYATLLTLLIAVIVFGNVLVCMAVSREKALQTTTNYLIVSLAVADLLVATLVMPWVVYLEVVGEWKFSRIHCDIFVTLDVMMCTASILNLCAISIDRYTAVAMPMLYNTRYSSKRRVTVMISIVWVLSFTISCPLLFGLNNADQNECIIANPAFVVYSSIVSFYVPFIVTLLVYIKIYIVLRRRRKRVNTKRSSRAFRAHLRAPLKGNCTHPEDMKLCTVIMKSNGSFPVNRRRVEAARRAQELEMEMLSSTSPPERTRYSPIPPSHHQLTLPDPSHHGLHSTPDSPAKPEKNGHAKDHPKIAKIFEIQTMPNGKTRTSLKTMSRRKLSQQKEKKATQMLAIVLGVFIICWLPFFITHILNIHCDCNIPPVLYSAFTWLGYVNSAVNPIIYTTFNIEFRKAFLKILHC
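DiscoveRx PathHunter D2 beta-arrestin cells (2,100/well) attached overnight, then compound-stimulated 90 min at 37 C in HBSS/10 mM HEPES/0.1% Tween-20 buffer; beta-galactosidase complementation read by luminescence after 1 h at ambient temperature. Dopamine 57 uM final (EC100) as control.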
* hit, by the source's call; ? = inconclusive; / = not tested or not shown; [ ] = dose if it differs, or a comment. Not a hit list. About 5.1% of those tested had a hit in this group.

Assay codes: A = gsp agonist; B = ClpP mod; C = gsp antagonist; D = Menin-MLL FL inh; E = PINK1 modulator; F = Sfp inh; G = D2 agonist
> Cc1ccc(C)c(OCC(=O)NCCNC(=O)COc2cc(C)ccc2C)c1
  A: -9% | B: -1.4% | C: -1% | D: -0.4 | E: 1.6%[38.3 µM] | F: ? | G: -3.2

> COC(=O)c1sccc1S(=O)(=O)Nc1ccc(C)cc1
  A: 2% | B: 0.8% | C: 4% | D: 10 | E: 4.0% | F: -9% | G: -2.9

> O=C1OCc2cccc([N+](=O)[O-])c21
  A: 24% | B: 2.1% | C: 5% | D: -2.8 | E: 1.7% | F: 2% | G: -1.7

> NC(=O)CSc1oc(-c2ccc(F)cc2)nc1S(=O)(=O)c1ccccc1
  A: 15% | B: 0.6% | C: 4% | D: -2.4 | E: 0.3% | F: -16% | G: 0.6

> CC(=O)NC12CC3CC(C1)CC(C(=O)N1CCN(S(=O)(=O)c4ccc(Cl)s4)CC1)(C3)C2
  A: -13%[15.4 µM] | B: 1.0% | C: -22% | D: / | E: -1.3% | F: 10% | G: -0.8

> CC1CCCCN1C(=S)NCc1ccco1 (configuration not stated)
  A: -7%[15.4 µM] | B: / | C: 7% | D: -4.3 | E: 1.3% | F: 14% | G: -4.5

> CCCCCCCCNC(=O)/C(C#N)=C/c1ccccc1[N+](=O)[O-]
  A: 4% | B: -4.9% | C: -3% | D: ? | E: -1.6% | F: -2% | G: -1.8

> Cc1nc2ccccc2c(=O)n1NC(=O)c1ccccc1
  A: -10%[15.4 µM] | B: -4.3% | C: -10% | D: 2.0 | E: 0.1% | F: 12% | G: 5.1

> CCOC(=O)Cc1csc(SCC(=O)N(CC(C)C)c2c(N)n(Cc3ccccc3)c(=O)[nH]c2=O)n1
  A: ? | B: -1.1% | C: 5% | D: / | E: -0.9% | F: / | G: -7.4

> O=C(COC(=O)c1cccc(Br)c1)NCc1ccco1
  A: -5% | B: / | C: 5% | D: / | E: -1.9% | F: / | G: -1.5

> CCc1cc(=O)oc2cc(C)cc(OC(C)C(=O)NC(Cc3c[nH]c4ccc(O)cc34)C(=O)O)c12 (configuration not stated)
  A: / | B: -26% | C: -3% | D: 5.6 | E: -0.7% | F: 16% | G: 3.4

> C=C1SC(=Nc2c(C)cccc2Cl)N(C(=O)c2sc3ccccc3c2Cl)C12CCCCC2
  A: ? | B: 1.8% | C: -1% | D: 2.3 | E: 8.6% | F: 1% | G: -0.1

> CC(C)C[C@H]1CN=C(Nc2ccccc2)N1CC1CCCCC1
  A: 22% | B: 0.5% | C: 11% | D: -3.2 | E: 2.5% | F: 6% | G: -1.7

> COCCCN1C(=O)C(=O)/C(=C(/O)c2ccc(OC(C)C)cc2)C1c1ccncc1 (configuration not stated)
  A: ? | B: -2.5% | C: 8% | D: 3.2 | E: -2.9%[38.3 µM] | F: 14% | G: 0.1

> CCc1noc(C)c1C(=O)NNC(=O)c1nn(C)c(=O)c2ccccc12
  A: ? | B: -0.1% | C: 9% | D: / | E: 1.9% | F: / | G: -3.4

> COc1ccc(-c2nc3ccc(Cl)cn3c2Cc2ccccc2)cc1OC
  A: / | B: 4.6% | C: / | D: / | E: 1.7% | F: / | G: -4.7

> Cc1[nH]c(C)c(S(=O)(=O)N2CCN(c3ccccc3)CC2)c1C(=O)N1CCCC1
  A: 22% | B: 0.8% | C: 19% | D: / | E: -0.3% | F: -2% | G: -5.9

> CCCc1n[nH]c(=O)c2c1nnn2Cc1ccccc1
  A: 35% | B: 0.4% | C: 12% | D: 3.4 | E: -1.2% | F: 11% | G: -1.3

> O=C(O)c1ccc(O)cc1O
  A: / | B: -28% | C: 8% | D: / | E: 1.9% | F: / | G: 0.8

> CC(=O)Nc1ccc(/C=C2\Sc3ccccc3C2=O)cc1
  A: -3%[15.4 µM] | B: 1.0% | C: -10% | D: 21 | E: -0.7% | F: 16% | G: ?

> CCN1CCCC1CN(Cc1cc2ccc(C)cc2[nH]c1=O)C(=S)Nc1ccccc1OC (configuration not stated)
  A: 0% | B: -7.8% | C: -11% | D: 0.9 | E: 3.8% | F: -1% | G: -4.3

> Cc1nc(C)n(CC(O)COc2ccc3cc(Br)ccc3c2)n1 (configuration not stated)
  A: -10% | B: -0.9% | C: ? | D: 0.4 | E: 0.7%[38.3 µM] | F: ? | G: 0.0

> COc1cc(C(=O)N2CCCc3ccccc32)c([N+](=O)[O-])cc1OC
  A: -24% | B: -6.8% | C: 1% | D: 2.2 | E: 1.5% | F: 19% | G: 8.2

> O=C(Nc1ccc2ccccc2n1)c1ccc(Cl)cc1
  A: 2%[15.4 µM] | B: -1.6% | C: -4% | D: -2.2 | E: 6.8% | F: 11% | G: 0.0

> CCCN(CC(=O)Nc1ccccc1C)C(=O)c1ccc(S(=O)(=O)N2CCC(C)CC2)cc1
  A: 4% | B: -3.0% | C: -4% | D: / | E: 1.0% | F: / | G: -5.8

> COc1ccc(C(=O)OCC(=O)Nc2cc(C)on2)cc1S(=O)(=O)N1CCOCC1
  A: -31%[inhibitor] | B: -3.6% | C: 2% | D: 3.4 | E: -1.4% | F: 19% | G: -0.5

> O=C1NC(O)CCN1C1CC(O)C(CO)O1 (configuration not stated)
  A: / | B: 1.0% | C: / | D: / | E: 0.3% | F: / | G: -2.0

> CC(=O)Nc1ccc(S(=O)(=O)NC2CC(=O)N(c3cccc(F)c3)C2)cc1 (configuration not stated)
  A: -4% | B: -0.9% | C: -2% | D: / | E: 1.1% | F: / | G: 0.7

> O=C(COc1ncnc2ccccc12)NCC1CCCO1 (configuration not stated)
  A: 27%[15.4 µM] | B: / | C: / | D: -1.8 | E: 4.3% | F: 15% | G: -0.5

> Cc1ccc(P(=O)(CO)c2ccc(C)cc2)cc1
  A: 0% | B: -0.4% | C: 0% | D: -2.0 | E: -1.8%[38.3 µM] | F: 4% | G: 0.0

> CCC(C(=O)Nc1nccs1)(C(F)(F)F)C(F)(F)F
  A: 5% | B: -2.1% | C: 32µM* | D: -0.9 | E: 10%[38.3 µM] | F: 6% | G: 4.9

> COC(=O)c1cc(OC)nc2c1c(=O)n(C)c(=O)n2C
  A: 22% | B: 6.6% | C: 16% | D: 3.8 | E: -3.0% | F: -2% | G: 1.2

> O=C(O)CC(NC(=O)c1ccccc1NC(=O)c1ccccc1)C(=O)O (configuration not stated)
  A: -3% | B: -1.3% | C: 6% | D: 1.5 | E: 0.0% | F: 14% | G: -1.6

> O=C(c1cccs1)N1CCCC(c2ccccc2)C1 (configuration not stated)
  A: 0% | B: 0.4% | C: -16% | D: 1.7 | E: -0.6% | F: 17% | G: -2.9

> CC(=O)c1c(C)[nH]c(C(=O)COC(=O)c2ccc(Cl)nc2)c1C
  A: 0% | B: 0.1% | C: -3% | D: / | E: 1.6% | F: / | G: 5.0

> O=C(NC1C/C=C\C(c2ccccc2)N(c2ccccc2)C(=O)C1)OCC1c2ccccc2-c2ccccc21 (configuration not stated)
  A: / | B: -6.1% | C: -12% | D: / | E: 0.7% | F: / | G: -3.1

> CC(=O)Nc1ccc(C(=O)Cn2c3[n+](c4c(F)c(F)ccc42)CCCCC3)cc1
  A: -18%[15.4 µM] | B: / | C: 3% | D: -2.7 | E: 1.7% | F: 1% | G: 0.6

> Cc1nn(C)cc1C(=O)c1ccccc1
  A: -24% | B: 0.5% | C: 5% | D: / | E: 1.1% | F: / | G: 1.2

> C=CCSc1nnc(-c2cc3c(C(F)(F)F)nn(C)c3s2)n1C
  A: -28% | B: -1.7% | C: -2% | D: -1.5 | E: 0.9% | F: 12% | G: -0.5

> CC(=O)Nc1cc(C(=O)N(C)Cc2ccco2)ccc1Sc1ccc(C)cc1
  A: -44%[inhibitor] | B: 0.5% | C: -5% | D: -1.3 | E: -0.7% | F: 13% | G: -2.7

> CC1CCC2(CC1)NC(=O)N(CC(=O)Nc1ccc3c(c1)OCO3)C2=O (configuration not stated)
  A: 2% | B: -7.8% | C: 5% | D: / | E: -0.3% | F: / | G: -1.5

> COc1ccc(C(C(=O)NCC2CCCO2)N(Cc2ccccc2)C(=O)c2snc(C(N)=O)c2N)cc1OC (configuration not stated)
  A: -50%[inhibitor] | B: -23% | C: -6% | D: / | E: 1.3% | F: 19% | G: 7.9

> Cc1nc(SCc2ccc(C#N)cc2)n[nH]1
  A: 7% | B: 2.6% | C: 8% | D: -2.0 | E: -0.3% | F: 15% | G: -3.5

> COCCn1c(SCC(=O)Nc2ccccc2)nc2c1c(=O)[nH]c(=O)n2C
  A: -3% | B: -0.1% | C: 1% | D: 1.6 | E: -0.3% | F: 16% | G: -8.2

> O=C(CS(=O)(=O)c1cn(Cc2ccc(Cl)cc2)c2ccccc12)N1CCOCC1
  A: -61%[inhibitor] | B: -1.3% | C: -5% | D: 0.3 | E: 0.9% | F: 11% | G: -7.7

> O=C1/C(=C/c2cccs2)SC(=S)N1NS(=O)(=O)c1ccccc1
  A: -62%[inhibitor] | B: 2.3% | C: -29% | D: -1.7 | E: 0.1% | F: -7% | G: -0.4

> Cn1nccc1C(=O)NC1CC(C)(C)Cc2c1cnn2-c1ccc(F)cc1 (configuration not stated)
  A: 0%[15.4 µM] | B: / | C: -12% | D: -0.8 | E: 0.2% | F: 10% | G: -7.3

A different layout for some results above.
Second line of a record: gsp agonist, ClpP mod, gsp antagonist, Menin-MLL FL inh, PINK1 modulator, Sfp inh, D2 agonist
COc1ccc(C(C(=O)NCC2CCCO2)N(Cc2ccccc2)C(=O)c2snc(C(N)=O)c2N)cc1OC (configuration not stated)
    -50%[inhibitor], -23%, -6%, /, 1.3%, 19%, 7.9
Cn1nccc1C(=O)NC1CC(C)(C)Cc2c1cnn2-c1ccc(F)cc1 (configuration not stated)
    0%[15.4 µM], /, -12%, -0.8, 0.2%, 10%, -7.3
CC1CCC2(CC1)NC(=O)N(CC(=O)Nc1ccc3c(c1)OCO3)C2=O (configuration not stated)
    2%, -7.8%, 5%, /, -0.3%, /, -1.5
COCCn1c(SCC(=O)Nc2ccccc2)nc2c1c(=O)[nH]c(=O)n2C
    -3%, -0.1%, 1%, 1.6, -0.3%, 16%, -8.2
